# BasE inh: BasE siderophore enzyme inhibitors, primary screen, biochemical, Acinetobacter baumannii ATCC 17978, fluorescence polarization | purified BasE, fluorescence polarization binding displacement | inhibition, % (no concentration beside the values) | hit rate 0.1% among 84,000 | AID 485350, 2010;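 active = both replicates above 25% with normal brightness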;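 note: 0% = negative plate control signal and 100% = positive plate control signal; stock transfer was 100 nL into about 30 µL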
# LANA-nucl inh: inhibitors of KSHV LANA-nucleosome binding, primary screen, biochemical, fluorescence polarization, FITC-LANA1-23, chicken nucleosomes; FITC-LANA1-23 / chicken nucleosome fluorescence polarization; active compounds read low; z-score (no concentration beside the values); hit rate 0.3% among 51,000; AID 720717, 2013;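 active = both repeat wells score below -2 in polarization z-score versus plate sample wells, excluding overly bright wells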;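 note: 100 nL library stock added to about 30 µL; numbers are from one replicate; some results filed as inactive read as strong as hits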
#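 Assay system: FITC-LANA peptide and chicken nucleosomes; input: 240 nM purified chicken nucleosomes (480 nM peptide binding sites), final; also added: 50 nM FITC-LANA1-23 probe; medium: TEN-BT buffer, pH 7.5; doses: pin-transferred compound, 100 nL; times: 10–45 min, room temperature; technique: fluorescence polarization; replication: duplicates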
# * marks the source's active call; other numbers are inactive results; / = no result given; & = joins results of further samples. Not all compounds are listed; rates above refer to the full screens.
SMILES,BasE inh,LANA-nucl inh
O=c1c2c(Br)c3c(=O)n(CCO)c(=O)c3c(Br)c2c(=O)n1CCO,15.0,-0.575
CCCOc1ccc(C(=O)NCC2(c3ccc(OC)cc3)CCOCC2)cc1,-0.6,/
CCOc1ccc2nc(Nc3nc4c(c(=O)[nH]3)CCCC4)nc(C)c2c1,-2.7,-0.108
N#CCCC(=O)c1ccco1,-0.7,/
COC(=O)c1ccc(NC(=O)C(C)Sc2ncn(-c3ccccc3)n2)cc1 (stereo unspecified),0.9,0.131
CC(=O)Oc1ccc(N(C(C)=O)S(=O)(=O)c2ccc3ccccc3c2)cc1,1.1,/
Cc1c(F)cccc1NC(=O)OCc1ccccc1,-0.9,0.43
COc1ccc(-n2cnc3cc(N=Cc4nc5ccccc5n4C)ccc32)cc1,-3.1,/
CC(Sc1nnc(Nc2ccccc2F)s1)C(=O)NC1(C#N)CCCCC1 (stereo unspecified),0.4,/
CCc1ccc2[nH]c(=O)c(CN(CCN3CCCC3)C(=O)NCc3ccccc3)cc2c1,-2.1,0.948
O=C1c2ccccc2CC1Sc1nnc(-c2ccco2)c(-c2ccco2)n1 (stereo unspecified),7.0,0.077
O=C1CCC(C(=O)OCc2ccccc2C(F)(F)F)=NN1,2.0,/

# Part of the list above in order of number of heavy atoms, ascending.
SMILES,BasE inh,LANA-nucl inh
N#CCCC(=O)c1ccco1,-0.7,/
O=C1CCC(C(=O)OCc2ccccc2C(F)(F)F)=NN1,2.0,/
CC(=O)Oc1ccc(N(C(C)=O)S(=O)(=O)c2ccc3ccccc3c2)cc1,1.1,/
COc1ccc(-n2cnc3cc(N=Cc4nc5ccccc5n4C)ccc32)cc1,-3.1,/

# (next part)
SMILES,BasE inh,LANA-nucl inh
Cc1cc(C(=O)N/N=C2\CC(c3ccccc3)Oc3ccccc32)c(C)o1 (stereo unspecified),1.6,/
CCOCCCn1c(SCC(=O)NC2(C#N)CCCCC2)nc2ccccc2c1=O,-1.0,/
CN(CC(=O)Nc1ncc(Cl)cc1Cl)Cc1ccc(Cl)cc1,-0.5,/
O=C(O)CSCC(=O)N1CCN(c2ccc(F)cc2)CC1,1.1,-0.6
Cc1ccc2nc(NNC(=O)c3ccc(S(=O)(=O)N4CC(C)OC(C)C4)cc3)sc2c1 (stereo unspecified),-0.3,-1.06
CCC(Oc1ccccc1)C(=O)N(C)C (stereo unspecified),-0.8,-0.804
O=c1cc(CSCc2ccc(Cl)cc2)[nH]c(=O)[nH]1,1.7,/
CC(C)(C)N1C(=O)c2ccc(C(=O)Nc3ccccc3C(=O)O)cc2C1=O,2.6,-0.188
CCCn1nc(C(=O)N2CC(=O)Nc3ccccc32)c2ccccc2c1=O,4.6,/
CCOC(=O)c1cc(=O)n2[nH]c(-c3ccc(Br)cc3)cc2n1,-0.6,0.507
Cc1nnc2c3ccccc3nc(NCCC3=CCCCC3)n12,-1.6,/
COC(=O)c1ccc(COC(=O)C(C)N=C2NS(=O)(=O)c3ccccc32)o1 (stereo unspecified),-0.3,/
c1csc(C2=NN3C(C2)c2ccccc2OC3c2cccs2)c1 (stereo unspecified),0.7,/
CO/N=C(\C(=O)N[C@@H]1C(=O)N2C(C(=O)O)=C(COC(C)=O)CS[C@H]12)c1csc(N)n1,/,0.677
O=C(Nc1ccccc1)/C(=C/c1ccccc1)NC(=O)c1ccco1,-0.4,0.019
O=C(CN1CCCC1c1cccs1)Nc1cc(C(F)(F)F)ccc1-n1cncn1 (stereo unspecified),0.9,/
Cc1noc(C)c1CSc1ncccc1C(=O)NCCc1ccc(S(N)(=O)=O)cc1,-0.7,/
Cn1c(=O)c2cc(C(=O)c3ccccc3O)cnc2n(C)c1=O,2.7,/
CC1Cc2cc(CCC(=O)O)ccc2O1 (stereo unspecified),-0.2,-0.21
NC(=S)Cc1ccccc1,3.1,/
COc1ccc2c(c1)c1nc3ccccc3nc1n2C,9.4,-0.757
O=C(Nc1ccc2c(c1)OCO2)c1ccccc1,0.0,1.39
CCCNC(=O)c1ccc(N2CC3CC(C2)c2cccc(=O)n2C3)c(NS(=O)(=O)c2ccc3c(c2)OCCO3)c1 (stereo unspecified),-0.2,0.42
CSc1ccccc1NC(=O)Cn1nc(C(F)(F)F)cc1C,1.3,-0.818
O=C(Nc1ccccc1)Nc1cccc(C(F)(F)F)c1,-0.5,/
CCc1ccc2oc(-c3ccc(NC(=O)c4ccccc4)cc3)nc2c1,2.3,/
OC1(C#CCN2CCCCCC2)CCCCC1,-4.3,-0.237
O=C(NC(=O)c1ccccc1)NC1CCCC1,2.5,-0.111
COc1ccc(N2CCN(C(=O)C3CCN(S(=O)(=O)c4ccc5c(c4)oc(=O)n5C)CC3)CC2)cc1,1.7,-0.548
Cc1ccc(C(=O)N2Cc3ccccc3CC2C(=O)O)cc1 (stereo unspecified),0.9,-0.378
O=C(CCn1c(=O)c2ccccc2n(CC(=O)NCc2ccco2)c1=O)NCCc1ccc(Cl)cc1,-2.7,1.47
N#Cc1ccc(-c2ccc(OCc3ncc(-c4ccccc4)o3)cc2)cc1,-1.3,/
COC(=O)C1=C(C)NC(C)=C(C(=O)OC)C1C1CC=CCC1 (stereo unspecified),-2.6,2.35
CCCCC(=O)Nc1nnc(-c2ccc(C)c(C)c2)o1,-0.1,-0.893
CN1/C(=C/C(=O)C2CCC2)Sc2ccccc21,0.1,-1.74
O=C1NC(=S)S/C1=C\c1cn(CC(=O)N2CCOCC2)c2ccccc12,-40.1,3.76
O=C(NCCCN1CCN(Cc2ccccc2)CC1)c1cnn(-c2ccccc2)c1-n1cccc1,0.7,-1.4
Cc1oc(-n2cccc2)c(C#N)c1C(=O)O,1.2,/
COc1ccc(C(=O)Nc2nc(C)cs2)cc1S(=O)(=O)N1CCCCC1C (stereo unspecified),0.7,/
NCCSCc1cccs1,3.2,/
O=C(CC1SC(=O)N(c2ccccc2)C1=O)Nc1ccccc1 (stereo unspecified),1.5,0.021
CCNc1nc(C(F)(F)F)cc(=O)[nH]1,/,-1.48
N#CC(C#N)=CC1CCCCC1,-4.4,/
O=C(CSc1ccc2c(c1)OCCO2)NCC(F)(F)F,1.0,/
NC(=O)C1CCN(C2=NC(=O)/C(=C\c3ccc(Br)cc3)S2)CC1,6.2,-0.0565
CCC(C)(C)C(=O)Nc1ccccc1C(C)C,2.4,-0.269
COCCn1c(SCc2coc(-c3cccs3)n2)nc2scc(-c3ccccc3)c2c1=O,0.0,/
CCOc1ccc(C2SC[C@H](C(=O)O)N2C(C)=O)cc1 (stereo partly specified),-2.2,0.104
Cn1c(NCc2ccncc2)nc2ccccc21,-4.0,1.66
O=S(=O)(c1ccc(Cl)cc1)N(O)c1ccc(Cl)cc1,1.9,/
CC(C)S(=O)(=O)c1ncc(CO)n1Cc1ccccc1,-0.6,-0.006
N/C(=N\N=C\c1cccs1)SCc1ccccc1,2.8,-0.645
CC(C)NC(=O)N(Cc1ccccc1)Cc1cccnc1,-2.1,/
COc1ccccc1OCCSc1ncnc2nc[nH]c12,-2.6,-0.38
O=C(CN1CCc2ccccc2C1)Nc1ccccc1,-1.2,-0.357
CCc1ccc(NC(=S)NCC2CCCN2CC)cc1 (stereo unspecified),2.3,/
O=C(O)CSC(=S)N1CCOCC1,0.1,/
N#Cc1ccc(/C=N/NC(=O)C2C3CCCCC32)cc1 (stereo unspecified),-3.1,-0.0145
OCC1CCCN1Cc1ccc(Cl)cc1Cl (stereo unspecified),-1.1,0.451
CCOC(=O)/C(C#N)=C/C=C1/Sc2ccccc2N1C,32.0,/

# Continued:
SMILES,BasE inh,LANA-nucl inh
COc1ccccc1N(CC(=O)Nc1ccc2c(c1)OCO2)S(=O)(=O)c1cccs1,1.2,/
CN(Cc1cc(Br)cc(Br)c1N)C1CCCCC1,0.9,0.554&-0.983&-0.543
O=c1[nH]cc(N2CCOCC2)c(=O)[nH]1,2.6,0.105
CC(C)CCn1cnc2c1c(=O)n(CC(=O)N1c3ccccc3NC(=O)C1(C)C)c(=O)n2Cc1ccccc1,-2.0,/
O=C(NCc1ccccc1)N1CC2C=CC1C2 (stereo unspecified),0.5,/
O=C(NCCCN1CCN(c2ccccc2)CC1)NCc1ccccc1,0.8,0.072
Cc1ccc(N2C(=O)C(c3ccccc3)C(N3CCOCC3)C2=O)cc1 (stereo unspecified),/,-0.978
CCN(CC)S(=O)(=O)c1ccc(NC(=O)COc2c(OC)cccc2OC)cc1,0.6,/
O=C(NCCN1CCN(c2ccccc2)CC1)c1ccc2c(=O)n(CCc3ccccc3)c(=O)[nH]c2c1,2.0,-0.688
CCc1nnc(NC(=O)C2CCN(S(=O)(=O)Cc3ccccc3)CC2)s1,-1.4,-0.16
CCn1c(SCC2COc3ccccc3O2)nnc1-c1cccs1 (stereo unspecified),-1.5,/
NC(=O)CSc1nc(N)c(NC(=O)c2cccs2)c(=O)[nH]1,0.0,-0.241
O=C(c1ccc(CS(=O)(=O)c2ccccc2)cc1)N1CCCC1,0.1,1.08
CCC1C(C#N)=C(SC(C(N)=O)c2ccccc2)NC2=C1C(=O)CC(C)(C)C2 (stereo unspecified),0.9,/
NC(=O)Cn1cc(F)c(=O)[nH]c1=O,-0.6,-0.462
Cc1cccc(S(=O)(=O)NCc2cn3ccsc3n2)c1,-0.9,-0.366
CC1CN(C(=O)CCC(=O)NC2CCN(Cc3ccccc3)CC2)c2cc(Cl)ccc2O1 (stereo unspecified),-2.3,0.169
CCOc1ccc(-n2nc(C(=O)N3CCC4(CC3)OCCO4)c3ccccc3c2=O)cc1,1.5,-0.113
O=c1[nH]c(=S)nc2cc[nH]n12,3.5,0.446
CCOc1ccc(NC(=O)CN(C)c2ccc(S(=O)(=O)N(C(C)C)C(C)C)cn2)cc1OCC,-2.8,/
Cc1ccc(NC(=S)N(Cc2ccco2)Cc2cc3cc(C)c(Cl)cc3[nH]c2=O)cc1,-0.6,0.388
Cc1nn(CN2CCCC2c2cccs2)c(C)c1S(=O)(=O)N1CCCCC1 (stereo unspecified),0.8,/
Cc1cc(C)cc(NC(=O)N(CCC#N)Cc2ccccc2)c1,0.0,0.315
CC(C)C1CCC(C)C(C(O)c2ccc(-c3ccccc3)cc2)C1=O (stereo unspecified),-4.7,/

# Structural class, the compounds so far containing a furan ring, fused or not (eight)
SMILES,BasE inh,LANA-nucl inh
N#CCCC(=O)c1ccco1,-0.7,/
O=C1c2ccccc2CC1Sc1nnc(-c2ccco2)c(-c2ccco2)n1 (stereo unspecified),7.0,0.077
Cc1cc(C(=O)N/N=C2\CC(c3ccccc3)Oc3ccccc32)c(C)o1 (stereo unspecified),1.6,/
COC(=O)c1ccc(COC(=O)C(C)N=C2NS(=O)(=O)c3ccccc32)o1 (stereo unspecified),-0.3,/
O=C(Nc1ccccc1)/C(=C/c1ccccc1)NC(=O)c1ccco1,-0.4,0.019
O=C(CCn1c(=O)c2ccccc2n(CC(=O)NCc2ccco2)c1=O)NCCc1ccc(Cl)cc1,-2.7,1.47
Cc1oc(-n2cccc2)c(C#N)c1C(=O)O,1.2,/
Cc1ccc(NC(=S)N(Cc2ccco2)Cc2cc3cc(C)c(Cl)cc3[nH]c2=O)cc1,-0.6,0.388

# Further records
SMILES,BasE inh,LANA-nucl inh
CCCNC(=O)N1CC(CC)Oc2ccccc21 (stereo unspecified),-3.5,1.8
OCCOc1ccccc1O,2.6,/
c1ccc(C(CN2CCOCC2)c2ccccc2)cc1,-1.5,0.51
Cc1nc2ccc(F)cc2c2c1CCN2c1ccc(Cl)cc1,1.4,/
O=C1S/C(=C\C=C\c2ccco2)C(=O)N1c1ccccc1,-0.6,0.676
Nc1nonc1C(=O)NCCNCc1ccncc1,1.6,-0.256
O=C1[C@H](CCC(O)c2ccc(F)cc2)[C@@H](c2ccc(O)cc2)N1c1ccc(F)cc1 (stereo partly specified),0.2,0.0335&-0.201
CS(=O)(=O)N(Cc1ccccc1)c1ccc(C(=O)NC2CCCCC2O)cc1 (stereo unspecified),-2.8,0.338
N/C(CSc1cccs1)=N\OC(=O)Nc1ccccc1,-2.3,0.426
Cc1ccc(Sc2oc(/C=N/n3cnnc3)cc2Br)cc1,1.7,-0.55
CC(Sc1nc2ccccc2s1)C(=O)N1CCOCC1 (stereo unspecified),3.4,/
Cc1nc2sc(C(c3ccccc3Cl)N(C)Cc3ccccc3)c(O)n2n1 (stereo unspecified),-0.9,2.78
CCc1ccc(CC(=S)N2CCOCC2)cc1,1.5,/
O=C(NCc1ccc(-c2cccs2)s1)c1c(Cl)cccc1Cl,1.6,/
O=c1[nH]nc(CSCc2csc(-c3ccccc3)n2)[nH]1,1.0,-1.3
Cc1cc2c(cc1S(=O)(=O)N1CCc3ccccc31)n(C)c(=O)c(=O)n2C,-1.2,0.641
CCCCNc1nc2ccccc2n1CC(N)=O,-1.2,/
O=S(=O)(Cc1ccccc1)c1cnc2ccccc2n1,/,0.158
COc1ccc(CN2CCC(C(=O)O)CC2)cc1,-0.6,0.258
O=C(O)c1ccc(NS(=O)(=O)c2ccc3c4c(cccc24)C(=O)N3)cc1,2.3,/
CCOc1cc(C(=S)N2CCCC2)ccc1OCc1ccccc1F,1.6,/
O=C1CC(=O)c2ccc3c4c(ccc1c24)C(=O)CC3=O,27.0*,-0.281
COc1ccc(CCn2c(-c3ccco3)nc3ccccc3c2=O)cc1OC,-1.3,0.499
N#Cc1ccccc1CSc1nc2ccccc2s1,0.5,/
Cc1ccc(-c2nnc(N3CCCCC3)c3ccccc23)cc1C,0.1,/
CC1(C)CC(=O)C(Sc2ccc(Br)cc2)=C(O)C1,3.3,0.0295
